Source: PubChem BioAssay
VDR inhibitor – blocks the human vitamin D receptor | Potency, µM, without a hit: max response, negative = inhibition, most hits filed as inhibitors | VDR-SRC2-3 peptide fluorescence polarization, 2 h | P11473 | actives 0.93% (n = 400,000); active means well fitted inhibition curve with a large enough effect; inconclusive means small, poorly fitted or top-dose-only effect, or another doubt; inactive means no such curve, though single readings can be large or run the other way; further: series mostly up to about 120 µM
Target sequence (P11473 whole entry, looked up): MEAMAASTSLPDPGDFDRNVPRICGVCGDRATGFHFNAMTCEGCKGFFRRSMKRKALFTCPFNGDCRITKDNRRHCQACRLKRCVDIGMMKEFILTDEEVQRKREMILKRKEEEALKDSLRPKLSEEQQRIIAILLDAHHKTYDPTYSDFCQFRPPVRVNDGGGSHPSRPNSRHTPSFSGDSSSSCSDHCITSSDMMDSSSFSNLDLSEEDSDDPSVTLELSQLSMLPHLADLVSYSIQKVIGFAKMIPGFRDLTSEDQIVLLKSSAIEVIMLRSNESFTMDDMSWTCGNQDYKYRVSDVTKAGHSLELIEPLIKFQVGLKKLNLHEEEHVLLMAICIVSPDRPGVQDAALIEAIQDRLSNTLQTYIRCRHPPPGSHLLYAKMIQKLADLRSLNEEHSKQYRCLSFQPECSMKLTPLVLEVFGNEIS
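Fluorescence polarization assay measuring small-molecule disruption of VDR binding to the coregulator peptide SRC2-3. Compounds were pin-transferred (23 nl) into the reagent mix and incubated 2 h at room temperature before reading.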
* marks the source's active call; other numbers are inactive results; ? = inconclusive; & = joins results of further samples. On the % scale 0 is the no-effect control and ±100 the full control effect; potency means the concentration at half of the fitted maximal effect. Some of the compounds tested; count on the stated rates, not on these rows.

SMILES	VDR inhibitor
Cc1cc(C)cc(-n2c(SCC(=O)N3CCCCC3)nc3c([nH]c4ccccc43)c2=O)c1	4%
Cc1c(C(=O)NCC2CCCO2)oc2ccc(Br)cc12 (configuration not stated)	0%
CC(C)(C)n1nc2c(c1NC(=O)c1c(F)cccc1F)CS(=O)(=O)C2	24%
CCN(CC)CC(=O)c1c[nH]c2ccc(C)cc12	-11%
CCN(CC(=O)NCc1cccs1)C(=O)c1ccc(S(=O)(=O)Nc2ccccc2OC)cc1	-26%
C[C@H](C(=O)O)c1ccc2cc(O)ccc2c1	1%
O=C(c1ccc2c(Cl)c3c(nc2c1)CCCC3)N1CCN(c2cccc(Cl)c2)CC1	-3%
O=C(NCCN1CCOCC1)c1c(O)nc2sccn2c1=O	18%
COc1cccc2c1OCC(CN1CCN(Cc3ccccc3F)C(CCO)C1)=C2 (configuration not stated)	1%
Cc1ccccc1OCCC(=O)NNC(=O)COc1cccc(F)c1	-1%
Cc1ccccc1OCC(O)Cn1c(NCc2ccco2)nc2c1c(=O)[nH]c(=O)n2C (configuration not stated)	10%
O=[N+]([O-])c1c(C(Cl)Cl)nn(-c2ccccc2)c1N1CCCC1	10%
Cc1ccc(-c2cc3ncc(C#N)c(N)n3n2)cc1	?
COc1c(C)cc(S(=O)(=O)NCCc2c(C)[nH]c3ccccc23)c(C)c1C	7%
CCOc1ccc(Nc2nc(N(C)c3ccccc3)nc(N)c2[N+](=O)[O-])cc1	-11%
Cc1noc(C)c1S(=O)(=O)N(CC(=O)NCCc1ccccc1)c1ccc(C(C)C)cc1	7%&4%
CCN(CC)C(=O)c1ccc(C(=O)Nc2ccc(F)cc2)cc1	-3%
Cc1ccccc1-n1ncc2c1CC(C)(C)CC2NC(=O)c1ccncc1 (configuration not stated)	0%
CCCCn1nc(NC(=O)c2cccs2)c2cc3cc(OC)ccc3nc21	8%
COc1ccc2[nH]c(C(=O)NCCc3ccccc3)cc2c1	-7%
COc1cccc(NC(=O)c2c(C)nn(-c3ccccc3)c2Cl)c1	-22%
Cc1ccc(C(=O)N/C(=C\c2cccs2)C(=O)NCCCn2ccnc2)cc1	-12%
O=C(NCc1ccccn1)C1COc2ccccc2O1 (configuration not stated)	-4%
Cc1cccc(NC(=O)CCc2c(C)nn(-c3ccc(N4CCCCC4)nn3)c2C)c1	-12%
CCN(CC)C(=O)COc1ccc2oc(-c3ccco3)cc(=O)c2c1	-10%
CCOc1nc(Nc2ccc(OC)c(Cl)c2)nc(OCC)n1	4%
COc1ccccc1CCC(=O)OCC(=O)Nc1cccc(S(=O)(=O)N2CCCCC2)c1	3%
CC(=O)c1c(C)oc(C)c1CSCc1ccc(C(=O)O)o1	-6%
Cc1c(C)[n+](=O)c(C)c(C)n1[O-]	14%
CCCCCCCCNS(=O)(=O)CCNCCCC	-1%

An excerpt of these results, with the structure last.
VDR inhibitor	SMILES
4%	Cc1cc(C)cc(-n2c(SCC(=O)N3CCCCC3)nc3c([nH]c4ccccc43)c2=O)c1
0%	Cc1c(C(=O)NCC2CCCO2)oc2ccc(Br)cc12 (configuration not stated)
24%	CC(C)(C)n1nc2c(c1NC(=O)c1c(F)cccc1F)CS(=O)(=O)C2
-11%	CCN(CC)CC(=O)c1c[nH]c2ccc(C)cc12
-26%	CCN(CC(=O)NCc1cccs1)C(=O)c1ccc(S(=O)(=O)Nc2ccccc2OC)cc1
1%	C[C@H](C(=O)O)c1ccc2cc(O)ccc2c1
-3%	O=C(c1ccc2c(Cl)c3c(nc2c1)CCCC3)N1CCN(c2cccc(Cl)c2)CC1
18%	O=C(NCCN1CCOCC1)c1c(O)nc2sccn2c1=O
1%	COc1cccc2c1OCC(CN1CCN(Cc3ccccc3F)C(CCO)C1)=C2 (configuration not stated)
-1%	Cc1ccccc1OCCC(=O)NNC(=O)COc1cccc(F)c1
10%	Cc1ccccc1OCC(O)Cn1c(NCc2ccco2)nc2c1c(=O)[nH]c(=O)n2C (configuration not stated)
10%	O=[N+]([O-])c1c(C(Cl)Cl)nn(-c2ccccc2)c1N1CCCC1
?	Cc1ccc(-c2cc3ncc(C#N)c(N)n3n2)cc1
7%	COc1c(C)cc(S(=O)(=O)NCCc2c(C)[nH]c3ccccc23)c(C)c1C
-11%	CCOc1ccc(Nc2nc(N(C)c3ccccc3)nc(N)c2[N+](=O)[O-])cc1

The listing continues:
SMILES	VDR inhibitor
COc1ccc(NC(=O)COC(=O)/C=C/C(=O)OCC(=O)Nc2ccc(OC)c(Cl)c2)cc1Cl	-8%
Fc1ccc(-c2cc(C(F)(F)F)nc(NCc3cccs3)n2)cc1	3%
COc1ccc(CCNC(=O)C(=O)N2CCCCC2)cc1OC	-10%
O=C(NCCc1ccccc1)c1cc(Sc2ccc(F)cc2F)nc2ccccc12	13%
CCCCN(CC)C(=O)CCNS(=O)(=O)c1ccc2c(c1)c(=O)n(C)c(=O)n2C	-10%
CC(=O)c1ccc2noc(-c3ccc(Cl)cc3)c2c1	5%
O=[N+]([O-])c1ccc(CSc2ccc(S(=O)(=O)N3CCCCC3)cn2)cc1	-12%
N/C(Cn1cncn1)=N\NC(=O)C(=O)Nc1ccc(Cl)cc1Cl	-5%
Cc1oc2ncn(C)c(=O)c2c1C(=O)NCCCN1CCCCC1C (configuration not stated)	2%
S=C(Nc1ccc(Cl)c(Cl)c1)NN1CCOCC1	-23%
O=[N+]([O-])c1cc(C(F)(F)F)cc([N+](=O)[O-])c1NCCCNc1ccc([N+](=O)[O-])c2cccnc12	-18%
Cc1ccc(-c2nc(P(=O)(c3ccccc3)c3ccccc3)c(N3CCOCC3)o2)cc1	-1%
CCCn1c(NCc2ccco2)nc2c1c(=O)n(C)c(=O)n2C	1%
O=C(NCCCN1CCCC1=O)c1csc2ccccc12	-10%
COCCn1c(=NC(=O)CCS(=O)(=O)c2ccccc2)sc2cc(C(=O)OC)ccc21	-8%
COCCNc1nc2nonc2nc1N1C[C@H]2CC[C@H]1C2	-1%
COc1cccc(NC(=O)CSc2nnc(CN3CCOCC3)n2C)c1	-3%
CCCNc1nc(NCC)nc(OC)n1	-8%
COc1ccc(NC(=O)c2nc[nH]c2C(=O)Nc2ccccc2C)cc1	-3%
Cc1nc(NCc2ccccc2)sc1C(=O)Nc1ccccc1	-15%
CN(C)CC1(c2ccccc2)CCCC1	-3%
Cc1ccc(NC(=O)Cn2c(=O)n(CCCCC(=O)NCCc3ccc(Cl)cc3)c(=O)c3ccccc32)cc1	-6%
CCN(CC)c1nc2c(c(=O)n(C)c(=O)n2C)n1CCCc1ccccc1	?
CCC(CC)NC(=O)COC(=O)c1ccc(OCC(=O)Nc2ccccc2OC)c(OC)c1	11%
O=C(NC(=O)c1ccccc1)OCC1CCCN2CCCCC12 (configuration not stated)	3%
Cc1cc2ccccc2nc1-c1ccccc1F	3%
Cc1c(CC(=O)N2CCN(C(=O)C3COc4ccccc4O3)CC2)c(=O)oc2c(O)c(O)ccc12 (configuration not stated)	-19%
COc1cc(C(=O)NCCc2c[nH]c3ccccc23)ccc1OCc1c(C)noc1C	3%
CCOC(=O)N1CCN(c2nc3ccccc3nc2C(C#N)C(=O)NCCc2ccccc2)CC1 (configuration not stated)	-3%
CC1CCN(S(=O)(=O)c2ccc(N/N=C(/C#N)C(N)=O)cc2)CC1	19%
CC1Cc2ccccc2N1Cc1cc(=O)n2ccsc2n1 (configuration not stated)	-13%
CC(=O)c1cccc(NC(=S)NC(=O)CC(C)C)c1	16%
COc1ccc(C(C(=O)NC(C)(C)C)N(Cc2cccs2)C(=O)CCC(=O)Nc2cc(C)on2)cc1 (configuration not stated)	-8%
COc1ccnc(-n2cccc2/C=N/O)c1C#N	-8%
CCCOC(=O)c1ccc(NC(=O)CCOc2ccccc2)cc1	11%
COc1ccc(C)cc1NC(=O)C1COc2ccccc2C1 (configuration not stated)	0%
O=C1CC(/C=C/c2ccccn2)=Nc2ccccc2N1	-20%
O=C(O)CSc1cc(C(=O)c2ccccc2O)cn2c(=O)c3c4c(sc3nc12)CCCC4	-12%
COc1ccccc1CNC(=O)Cn1cc2c(n1)-c1c(oc(C(=O)N3CCOCC3)c1C)CC2	7%
Cc1cc(Nc2ccc(Cl)cc2)n2cnnc2n1	-2%
CC(C)[C@@H]1CC[C@@H](C)c2c(-c3ccccc3)n[nH]c21	7%
O=C(NCC(c1ccco1)N1CCOCC1)c1ccc(Cl)cc1 (configuration not stated)	-1%
O=C(CCN1CCCCCC1)c1ccccc1	-7%
CCOc1ccccc1NC(=O)C(OC(=O)c1ccccc1O)c1ccccc1 (configuration not stated)	-12%
Cc1ccc(/C=C2\NC(=S)NC2=O)cc1[N+](=O)[O-]	10%
CCN(Cc1ccncc1)C(=O)c1ccccc1NS(=O)(=O)c1ccc(F)cc1	-10%
C/C(CC(=O)N1CCN(C=O)CC1)=N\NC(=O)c1cc2ccccc2cc1O	-19%
CCc1ccc(NC(=S)N(Cc2cccc(Br)c2)CC2CCC(C(=O)O)CC2)cc1 (configuration not stated)	1%
C/C(=N/NC(=O)CC(=O)N/N=C(\C)c1ccc([N+](=O)[O-])cc1)c1ccc([N+](=O)[O-])cc1	-1%
COc1cccc(CNC(=O)c2ccccc2N)c1	-10%
O=C(CN1CCN(C(=O)c2ccco2)CC1)Nc1ccc(F)cc1F	10%
CN1CCN(CCCNC(=O)c2ccc(NC(=O)C3=CSCCO3)cc2)CC1	2%
Cc1ccc(NC(=O)CCCC(=O)O)c(Br)c1	13%
CCN(Cc1ccccc1)Cc1c(O)ccc2c(=O)c(-c3ccccc3Cl)coc12	6%
Cc1cc(C)n2nc(CC(=O)NC3CCCCCC3)nc2n1	-15%
Cc1ccc(/C=N/NC(=O)c2cc3c(ccc4ccccc43)o2)o1	27%
C=CCNC(=S)N1CCC(C(=O)c2ccc(Cl)cc2)CC1	-22%
C[C@H]1[C@@H](c2ccccc2)Oc2ccc(Cl)cc2S(=O)(=O)N1Cc1ccc(F)cc1F	-2%
Cc1cccc(NC(=O)/C(=C\c2ccc([N+](=O)[O-])o2)NC(=O)c2ccc(Cl)cc2)c1	-6%
CCN1C2=C(C(=O)CCC2)C(c2ccc(O)c(Br)c2)C2=C1CCCC2=O	-2%
(continued)
SMILES	VDR inhibitor
O=C(Nc1ccccc1C(F)(F)F)N1CCC(n2c(=O)[nH]c3ccccc32)CC1	-10%
COc1ccc(-n2c(N)c(C(=O)Nc3c(C)n(C)n(-c4ccccc4)c3=O)c3nc4ccccc4nc32)cc1	5%
CCOc1ncccc1C(=O)OC(C)C(=O)NC(=O)NC1CCCCC1 (configuration not stated)	0%
Cc1cc(C)n2ncc(S(=O)(=O)c3ccccc3)c2n1	-7%
CCOc1ccc(N2CC(NC(=O)c3ccc(Cl)cc3)CC2=O)cc1 (configuration not stated)	-2%
Cc1cc(=O)oc2cc(OC(=O)c3cncc(Br)c3)ccc12	?
COCc1nnc(NC(=O)CCS(=O)(=O)c2ccccc2)s1	-1%
N#C/C(=C\c1cc2c(cc1Br)OCO2)c1ccc(C(=O)O)cc1	2%
Nc1c(N=Nc2ccc(-c3ccc(N=Nc4cc(S(=O)(=O)O)c5ccccc5c4N)cc3)cc2)cc(S(=O)(=O)O)c2ccccc12	28µM*
Cc1ccc2sc(NC(=O)C3CC3)nc2c1C	7%
Cc1cccc(-n2c(O)c(C=Nc3ccccc3O)c3ccccc3c2=O)n1	-6%
COc1cccc(CNC(=O)Cn2ccc([N+](=O)[O-])n2)c1	-4%
COc1ccccc1N1CCN(C2CCN(S(=O)(=O)c3ccc(NC(C)=O)cc3)CC2)CC1	2%
CN(C)/C=C(\C#N)C(=O)Nc1ccc(O)cc1F	3%
CC1SC(c2ccccc2)N(CC(O)c2ccc([N+](=O)[O-])cc2)C1=O (configuration not stated)	-10%
Cc1cccc(OCCCC(=O)Nc2ccc(S(=O)(=O)Nc3onc(C)c3C)cc2)c1C	-6%
O=c1cc(C(F)(F)F)[nH]c(=S)n1-c1ccccc1	-28%
CCCCn1nc2cc(C(=O)NC[C@@H]3CCCO3)ccc2c1OCC	6%
Cc1ccc(-c2c(C(=O)N3CCN(c4cccc(C)c4C)CC3)oc(=O)c3ccccc23)cc1	12%
CO[C@@]12[C@@H]3N[C@@H]3CN1C1=C(C(=O)C(N)=C(C)C1=O)[C@@H]2COC(N)=O	4%
COc1ccc(C2c3ccc4ccccc4c3Oc3ncn(CCCN(C)C)c(=N)c32)cc1 (configuration not stated)	11%
O=C1Nc2ccc(S(=O)(=O)N3CCOCC3)c3cccc1c23	3%
COc1ccc(CC(=O)NCc2ccc3c(c2)OCO3)cc1	5%
CCOC(=O)C[C@H]1c2ccc(C(F)(F)F)cc2S(=O)(=O)N1C(C)(C)C	9%
CCNC(=S)NNC(=O)c1cc(-c2cc(C)ccc2C)nc2ccccc12	1%
COc1ccc(-c2noc(CCC(=O)NCCCN3CCN(c4ccc(F)cc4)CC3)n2)cc1	18%
COC(=O)c1ccc(Cl)c(NC(=O)CSc2nnc(-c3ccncc3)o2)c1	4%
COc1ccc(OC)c(/C=N/NC(=O)c2ccc(Cn3cc([N+](=O)[O-])cn3)o2)c1	-7%
O=C(CCC(=O)c1ccc(F)cc1)NN1C(=O)NC2(CCCCC2)C1=O	1%
CCC1CCCCN1C(=O)CSc1nc(C)cc(C)n1 (configuration not stated)	-1%
Cc1csc(NC(=O)c2cc3c(s2)CCCCC3)n1	10%
Cc1cccc(N(C(=O)c2ccco2)C(C(=O)NC2CCCC2)c2cccnc2)c1C (configuration not stated)	8%
Cc1c(C)c2c(OCC(=O)NCc3ccncc3)cc3c(c2oc1=O)CCC(C)(C)O3	-6%
Cc1cccc(S(=O)(=O)Nc2ccc(S(=O)(=O)Nc3nccs3)cc2)c1	-16%
COc1cc(/C=C/c2c([N+](=O)[O-])c(=O)n(C)c(=O)n2C)cc(OC)c1OC	-19%

In a second layout: 2 of the compounds above
Compound: Cc1noc(C)c1S(=O)(=O)N(CC(=O)NCCc1ccccc1)c1ccc(C(C)C)cc1
  VDR inhibitor: 7%&4%

Compound: CCN(CC)C(=O)c1ccc(C(=O)Nc2ccc(F)cc2)cc1
  VDR inhibitor: -3%
